Screening results: PubChem, ICCB-Longwood Screening Facility, Harvard Medical School
MgrA-DNA mod = alters Staphylococcus aureus MgrA binding to DNA; inhibition, %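 (about 10 µg/mL by stock and volumes)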; 0.13% of 84,000 active; fluorescence polarization;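 active means above 50% in either of two replicates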;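 further: 0% = protein plus DNA without compound and 100% = DNA alone without protein; higher means less MgrA bound to DNA so lower polarization; one replicate is shown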
Sa helicase inh = blocks Staphylococcus aureus DNA helicase. 0.05% of 120,000 active. inhibition, %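 (tested at about 80 µM)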. purified S. aureus helicase, fluorescence unwinding assay; about half of the hits fall short of the stated cut;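 active means both duplicates at 50% or more, or one of them with a favoured structure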;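 further: 0% = mean of negative control wells and 100% = mean of positive control wells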
* hit, by the source's call; . = no result given.

SMILES	MgrA-DNA mod	Sa helicase inh
Nn1cnnc1SC(CNS(=O)(=O)c1ccc(Cl)cc1)c1ccccc1 (stereo not drawn)	.	-12.0
O=C(CCn1c(=O)oc2ccccc21)NC1CCCCC1	0.2	1.0
COC(=O)Sc1nnc(-c2ccc(C)cc2)o1	.	25.0
COC(=O)C1CN(C(=O)c2ccccc2Cl)c2ccccc2O1 (stereo not drawn)	.	1.0
CCCOC(=O)CC1Sc2ccc(C(F)(F)F)cc2NC1=O (stereo not drawn)	4.5	11.0
Cc1cc(NCCN2CCOCC2)nc2ccccc12	.	17.0
O=C1C(=Cc2ccc(O)cc2)C(=O)c2ccccc21	.	-25.0
Cc1cccc(CSc2nc3ccncc3n2CC(=O)NCc2ccco2)c1	.	-8.0
N#Cc1ccc(/C=C2/N=C(SCC(=O)N3CCCC3)N(C3CCCCCC3)C2=O)cc1	.	-20.0
O=C(CSc1nnc(-c2ccc(C(F)(F)F)cn2)s1)Nc1ccccc1	-1.1	.
CCN1C(=O)C(C(=O)N(Cc2ccccc2)Cc2ccccc2)C2CC1(C)Oc1ccccc12 (stereo not drawn)	-0.1	2.0
COc1ccc(Cn2c(O)c(/C=N/Nc3nc(C)cc(C)n3)c3ccccc3c2=O)cc1	.	-7.0
Cc1[nH]nc(NC2=CC(=O)CC(C)(C)C2)c1-c1ccc(Cl)cc1	.	31.0
N#CCc1c(C#N)c(N)nc(N2CCCC2)c1C#N	.	-10.0
CCCc1cc(=O)[nH]c(SCC(=O)NCC23CC4CC(CC(C4)C2)C3)n1	0.4	-1.0
Nc1ncc(C(F)(F)F)cc1C(F)(F)F	-0.3	.
O=C(O)CC1(CC(=O)Nc2cccc(C(=O)O)c2)CCCC1	-2.7	.
CCCn1c(=O)c2c(C(F)(F)F)cc(-c3ccco3)nc2n(CCC)c1=O	.	10.0
CCc1cccc(NC(=O)c2ccccn2)c1	.	-1.0
CC(C(=O)OCC(=O)c1ccc(F)cc1)N1C(=O)C2C3C=CC(C3)C2C1=O (stereo not drawn)	.	-8.0
COc1ccc(OC(=O)OCC(C)C)cc1	0.3	5.0
COC(=O)c1ccccc1SCC#N	-1.3	.
CC(C)(C)C(=O)CSc1nc2c(cc1C#N)N1CCC2CC1	1.3	7.0
Cc1cccc(-c2nnc(NC(=O)Cc3ccccc3)s2)c1	.	10.0
CCN(CC)CCSc1nnc2c3cc(C)ccc3n(C)c2n1	3.9	30.0
CC1(c2ccc(Cl)cc2)CC(C)(C)N(C(=O)c2cccnc2)c2ccccc21 (stereo not drawn)	2.2	3.0
O=C(NCc1ccc2c(c1)OCO2)c1ccc(Cn2cc(Cl)cn2)cc1	.	3.0
O=C1CC(c2ccccc2)n2nc(NS(=O)(=O)c3ccccc3)nc2N1 (stereo not drawn)	0.3	6.0
CC(C)(C)SCc1cccc(C(=O)N2CCN(c3ncccc3C(F)(F)F)CC2)c1	3.3	.
COc1ccc(OCC(=O)NCc2ccco2)cc1	5.2	6.0
N=c1nc(SCCC(=O)O)ss1	2.6	15.0
O=C(O)CCc1ccsc1	.	10.0
CC1(C)Cc2c(sc(N3CCCC3=O)c2C#N)C(C)(C)N1	.	4.0
CCc1ccc(C2C(C#N)=C(N)Oc3cc(C)oc(=O)c32)cc1 (stereo not drawn)	1.2	.
COc1cc(/C=C/C(=O)C(C#N)c2nc3ccccc3n2C)cc(OC)c1OC (stereo not drawn)	.	-1.0
CSc1n[nH]c(NC(=O)c2ccc(C(C)(C)C)cc2)c1-c1ccccn1	-2.0	.
COc1cc(OC)cc(C(=O)N2CCN(C)CC2)c1	.	-17.0
CCCOc1ccc(C2C3=C(CCCC3=O)OC3=C2C(=O)CCC3)cc1	.	11.0
CSc1scc2c1C(=O)/C(=C/N(C)C)CC2	.	14.0
Cc1occc1C(=O)N/N=C/c1sc(N2CCOCC2)nc1-c1ccccc1	.	6.0
CCCNC(=O)c1csc2c1CCCCC2	.	7.0
CCOC(=O)C1CCCN(C(=O)c2cc(-c3ccc(F)cc3)nc3ccccc23)C1 (stereo not drawn)	-0.3	-21.0
CNc1csc(C)c(C)c1=O	.	-7.0
COC(=O)Nc1nc(-c2cccc(Br)c2)cs1	-0.3	3.0
O=C(CSc1nnc(COc2cccc3ccccc23)n1CC1CCCO1)NC1CC1 (stereo not drawn)	-0.8	6.0
CCc1cccc(NC(=O)Cc2noc3ccccc23)c1	3.5	9.0
CCOC(=O)c1cncc(C#CCO)c1	3.6	.
COc1ccc(/C=C2\CC/C(=C\c3ccc(OC)c(Cn4cccn4)c3)C2=O)cc1Cn1cccn1	-0.3	12.0
CC(C)NC(=O)CN	.	-6.0
COCCNC(=S)N1CCC(C(=O)c2ccc(F)cc2)CC1	-6.7	-3.0
C=CCn1c(SCC(C)C)nc2sc3c(c2c1=O)CC(C)(C)OC3	2.7	1.0
C/C(C(=O)c1ccc(Cl)cc1)=[N+](/[O-])C1CCC/C1=N\O (stereo not drawn)	0.4	0.0
O=C(O)CSCC(=O)Nc1ccc2c(c1)OCCCO2	-3.0	.
CC1CCc2cc(F)ccc2N1C(=O)CN1C(=O)c2ccccc2S1(=O)=O (stereo not drawn)	.	13.0
O=c1c(Br)c(N2CCOCC2)cnn1-c1ccccc1	0.7	3.0
O=C(COc1ccc(C(=O)c2ccc(F)cc2)cc1)NC1CCCC1	-2.0	-4.0
CCN(CC)C(=O)Nc1c(-c2c(Cl)cccc2Cl)noc1C	.	-13.0
c1ccc(OCCNCCOc2ccccc2)cc1	.	10.0
CSc1c(C#N)c(N)[nH]c(=S)c1C#N	10.0	.
O=C1CN(Cc2cc(=O)oc3cc4c(cc23)CCC4)CCN1	.	2.0

(list continues)
SMILES	MgrA-DNA mod	Sa helicase inh
O=C(CSc1ccccc1C(=O)O)NC12CC3CC(CC(C3)C1)C2	-1.1	-12.0
Cc1cc(NS(=O)(=O)c2ccc(NC(=O)NC(C)(C(F)(F)F)C(F)(F)F)cc2)no1	.	-17.0
COc1ccccc1-c1c(C)nn2c(SCC(=O)N3CCOCC3)cc(C)nc12	.	9.0
COC(=O)C1=C(Nc2cc(Cl)cc(Cl)c2)CSC1	-1.2	.
Cc1cc(C(=O)N(Cc2ccccc2)c2ccccc2)no1	-7.1	9.0
O=C1CCN(C(=O)CCc2nc3ccccc3s2)CC1	.	6.0
Cc1ccn(S(=O)(=O)CC23CCC(CC2=O)C3(C)C)n1 (stereo not drawn)	-3.2	3.0
Cc1ccc(NC(=O)CC(NCCc2ccccc2)C(=O)O)cc1 (stereo not drawn)	0.0	-2.0
CCOC(=O)N1CCC2(CC1)C(C(=O)C13CC4CC(CC(C4)C1)C3)C2(C#N)C#N (stereo not drawn)	-1.2	1.0
CCC(CC)NC(=O)Nc1ccccc1C(F)(F)F	-0.2	-1.0
O=C(O)Cn1ncc2ccccc2c1=O	2.7	9.0
Cc1cc(N2CCCCC2)nc2ccc(N3C(=O)CCC3=O)cc12	.	7.0
O=C(O)CCc1ccc(-c2ccc(F)cc2)n1CC1CCCO1 (stereo not drawn)	3.8	-25.0
O=C(c1nn2c(C(F)(F)F)cc(-c3ccco3)nc2c1Cl)N1CCN(c2ccc(F)cc2)CC1	2.2	.
CC(=O)N1c2ccc(S(=O)(=O)NCC3CCC(C(=O)N4CC(C)CC(C)C4)CC3)cc2CC1C (stereo not drawn)	.	-12.0
COc1ccc(OC)c(NS(=O)(=O)c2cc(-c3cc(C)no3)ccc2C(C)C)c1	.	-12.0
COc1ccccc1NC(=O)c1nn(C)c(=O)c2ccccc12	.	14.0
CC(C)c1cc(C(C)C)c([N+](=O)[O-])c(C(C)C)c1	-2.2	.
CCCCn1c(CSc2ncccc2C(=O)O)nc2cc(S(=O)(=O)N3CCOCC3)ccc21	.	-7.0
CSc1cccc(NC(=O)CSc2nncn3c2cc2sccc23)c1	4.9	3.0
Cc1cc(I)c(S(N)(=O)=O)cc1C	0.8	.
CCn1c(SCC(=O)NC2CCCC2)nnc1C(C)C	0.6	-6.0
CCC1C(=O)N=C(SCC(=O)Nc2nc3ccc(C)cc3s2)NC1=O (stereo not drawn)	.	31.0
CC(C)Oc1cc(N2C(=O)CSCC2=O)c(Cl)cc1Cl	1.6	.
CC(=O)Nc1cn(-c2ccccc2)nc1-c1ccccc1	0.4	-20.0
COC(=O)c1ccccc1NC(=O)CC1Sc2ccccc2NC1=O (stereo not drawn)	0.4	6.0
CC(=O)Cc1ncn(-c2cc(C)on2)n1	-2.6	.
CCc1cccc(NC(=O)C(CC(C)C)NS(=O)(=O)c2ccc3c(c2)CCN3C(C)=O)c1 (stereo not drawn)	.	-16.0
CCOC(=O)CN1C(=O)C2(OCCCCO2)c2ccccc21	1.3	8.0
CN(C)C(CNS(=O)(=O)c1ccc(O)c(C(=O)O)c1)c1ccccc1 (stereo not drawn)	.	-3.0
NC(=O)c1cc2ccc(O)cc2oc1=O	1.6	2.0
Cc1cc(C)c(S(=O)(=O)N2CCSC2C)c(C)c1 (stereo not drawn)	.	7.0
CC(CNC(=O)Cn1c(=O)oc2ccccc21)c1ccccc1 (stereo not drawn)	.	0.0
CCc1ccc(OCC(=O)OCC(=O)N2CCc3ccccc3C2)cc1	-2.2	4.0
CC(=O)Oc1ccc2c3c(c(=O)oc2c1)CCCC3	2.1	8.0
CCCCNC(=O)c1cc2c(s1)-c1c(C)nn(-c3ccccc3)c1CC2	.	23.0
O=C(CCC1CCCCC1)NCc1cccs1	-3.9	7.0
N#C/C(=C\c1ccc(-c2ccc(SC(F)F)cc2)o1)C(=O)Nc1nc2ccccc2s1	.	-20.0
CC(C#N)Sc1nnc(-c2cccs2)n1CC1CCCO1 (stereo not drawn)	.	-3.0
COc1ccc(CCNC(=O)c2cc3ccccn3n2)c(OC)c1OC	.	7.0
COC(=O)C1CCN(S(C)(=O)=O)CC1	1.1	2.0
COc1ccc2c3c(ccc2c1)C(=O)[C@@](C)(CCC(=O)O)CC3	-5.1	8.0
O=C(Cn1c(CCCO)nc2ccccc21)NC1CC1	.	-4.0
CCN1CCc2c(sc3c2C(=O)NC(c2ccc(COc4ccc(Cl)c(Cl)c4)o2)N3)C1 (stereo not drawn)	.	13.0
CCn1cc(C(=O)N=c2sc3ccccc3n2C)c(=O)c2ccc(C)nc21	.	-7.0

Grouped by structure, those above with two or more sulfur atoms (12)
SMILES	MgrA-DNA mod	Sa helicase inh
Nn1cnnc1SC(CNS(=O)(=O)c1ccc(Cl)cc1)c1ccccc1 (stereo not drawn)	.	-12.0
O=C(CSc1nnc(-c2ccc(C(F)(F)F)cn2)s1)Nc1ccccc1	-1.1	.
N=c1nc(SCCC(=O)O)ss1	2.6	15.0
CSc1scc2c1C(=O)/C(=C/N(C)C)CC2	.	14.0
C=CCn1c(SCC(C)C)nc2sc3c(c2c1=O)CC(C)(C)OC3	2.7	1.0
CSc1c(C#N)c(N)[nH]c(=S)c1C#N	10.0	.
CCCCn1c(CSc2ncccc2C(=O)O)nc2cc(S(=O)(=O)N3CCOCC3)ccc21	.	-7.0
CSc1cccc(NC(=O)CSc2nncn3c2cc2sccc23)c1	4.9	3.0
CCC1C(=O)N=C(SCC(=O)Nc2nc3ccc(C)cc3s2)NC1=O (stereo not drawn)	.	31.0
Cc1cc(C)c(S(=O)(=O)N2CCSC2C)c(C)c1 (stereo not drawn)	.	7.0
N#C/C(=C\c1ccc(-c2ccc(SC(F)F)cc2)o1)C(=O)Nc1nc2ccccc2s1	.	-20.0
CC(C#N)Sc1nnc(-c2cccs2)n1CC1CCCO1 (stereo not drawn)	.	-3.0

More compounds
SMILES	MgrA-DNA mod	Sa helicase inh
COc1ccc(Cc2nnc(SCC(=O)Nc3ccc(OC)cc3)o2)cc1	-0.8	-1.0
Cc1ccccc1NC(=O)CSC1=Nc2ccccc2C2CC=NN12 (stereo not drawn)	.	-7.0
COc1ccc(C2=NN3C(C2)c2ccccc2OC3c2ccc(OC(=O)c3ccc(Br)cc3)cc2)cc1 (stereo not drawn)	-0.1	.
CCOC(=O)c1[nH]c2ccccc2c1-n1cccc1	-0.9	.
COC(=O)c1c(N)c(C#N)c2n1CCC2	12.5	-1.0
Cc1cccc(C)c1NCc1n[nH]c(=S)n1-c1ccccc1	0.0	8.0
c1csc(-c2nc3sc(-c4cccs4)nc3s2)c1	.	9.0
CCN1CCC(N2CCN(c3ccccc3)CC2)CC1	-4.8	9.0
O=c1cnc(-c2ccccc2)c(-c2ccccc2)[nH]1	.	-7.0
O=C(CN(C(=O)Cn1nnc(-c2ccc(F)cc2)n1)c1ccccc1C(F)(F)F)NCc1ccco1	1.1	-3.0
OCCNc1ncnc2nc[nH]c12	.	19.0
CCOc1ccc2c(c1)-c1c(ss/c1=N\NC(=O)c1cccnc1)C(C)(C)N2	.	7.0
CCn1nccc1C(=O)Nc1ccc(C)c(C)c1	.	6.0
CCOC(=O)c1nnc2cc(C)nn2c1C	-1.8	.
CC(C)n1c(-c2ccccc2)nc2ccccc21	0.1	-14.0

Quoted at random: 2 records from the list
SMILES	MgrA-DNA mod	Sa helicase inh
Cc1cccc(C)c1NCc1n[nH]c(=S)n1-c1ccccc1	0.0	8.0
CCN1CCC(N2CCN(c3ccccc3)CC2)CC1	-4.8	9.0

Remaining list, next part.
SMILES	MgrA-DNA mod	Sa helicase inh
Cc1ccc(C(=O)Nc2cccc(/C=N/N3CCOCC3)c2)cc1	.	3.0
Cc1ccc2oc(=O)n(CC(=O)O)c2c1	-6.9	19.0
O=C(CC1Sc2ccccc2NC1=O)Nc1ccccc1 (stereo not drawn)	.	14.0
Cc1ccn2c(NS(=O)(=O)c3ccc4c(c3)OCCO4)c(-c3cccs3)nc2c1	.	3.0
COC(=O)CCC(=O)Nc1ccc(F)cc1	.	-5.0
CSC1=NSC2=NS(=O)(=O)CCN12	.	-8.0
CN(C)C(=S)Nc1ccc2c(c1)OCO2	2.8	10.0
COc1ccc(C2C(C#N)=C(N)Oc3cc(C)n(CCc4ccc(OC)c(OC)c4)c(=O)c32)cc1 (stereo not drawn)	-0.3	7.0
Fc1ccc(Oc2ncnc3sccc23)c(Cl)c1	3.8	-30.0
Cc1csc(-c2c(C)oc3cc(O)ccc3c2=O)n1	.	6.0
CCCOc1ccc2cc(C(=O)c3ccccc3)c(=N)oc2c1	-0.1	-17.0
O=C(CCn1c(=S)oc2ccccc21)N1CCn2c(nc3ccccc32)C1	-6.2	20.0

Not all compounds are listed (hit frequency here may not be typical).
